Screening data from PubChem BioAssay.
gsp antag = gsp mutant antagonism; AID 624288; Potency, µM (titrated, usually from 76.9 µM), inactives show at the highest dose activity change, negative = inhibition, hits mostly inhibitors; gsp-mutant cells, cAMP HTRF, 30 min; control for the full effect not named in the record; 340,000 tested, 0.4% active; active = falling curve of any shape with a large fitted effect; inconclusive = falling curve, mostly with a smaller effect; inactive = flat or rising curve; cell line not stated here;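 also: intracellular cAMP measured with PDE inhibitor Ro 20-1724 present during compound exposure; potency is read from the fitted curve at half-maximal effect; % is scaled to controls: 0 for no effect and ±100 for the full control effect; nearly all actives have a fitted effect of over 65% in size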
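Cells in G418 medium, seeded 16-24 h, 37C; buffer exchange to DPBS + 1 mM CaCl2, 0.5 mM MgCl2, 0.05% BSA; cpds in DMSO + […] (300 uM stock), 30 min 37C; HTRF cAMP detection.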
Menin-MLL FL inh = menin-MLL binding inhibition, fluorescein peptide; Fluorescence polarization, fluorescein-MLL peptide displacement from menin; FP activity change, % at 61.4 µM; 290,000 tested, under 10 active; inconclusive = falling polarisation curve, or a change in total fluorescence; inactive = total fluorescence flat and polarisation flat or rising; no compound was filed as active; the % refers to the polarisation; negative = inhibition;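 also: % of control where 0% means no effect; inhibitors lower the polarisation; unlabelled MLL peptide was the positive control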
D2 potentiator = positive allosteric modulators of human D2 dopamine receptor | DiscoveRx D2 beta-arrestin cells, luminescence, 90 min; 100% = 57 uM dopamine signal | potentiation, % (concentration not given with the values) | 360,000 tested, 0.23% active; active = potentiation of 50% or more; inconclusive = 30% to 50%; inactive = 30% or less;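 also: compound concentration not given in the record; tested on top of an EC20 dose of dopamine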
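PathHunter beta-arrestin assay in DiscoveRx D2 cells. Compounds were added with an EC20 of dopamine (50 nM final) for 90 min at 37 deg C. Luminescence was read 1 h after detection reagent, with 57 uM dopamine as the EC100 control.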
Sfp inh = blocks B. subtilis Sfp PPTase activity | Q9F4F7 | Biochemical Sfp PPTase activity, qHTS | Potency, µM, inactives show max response, negative = inhibition, most hits filed as inhibitors | 310,000 tested, 3.5% active | AID 1490; active = well fitted inhibition curve with a large enough effect; inconclusive = small, poorly fitted or top-dose-only effect, or another doubt; inactive = no such curve, though single readings can be large or run the other way;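 also: the enzyme is Sfp with the accession as filed and its product quenches rhodamine fluorescence; potency is read from the fitted curve at half-maximal effect; 0% = enzyme reaction without inhibitor and -100% = no enzyme wells; top concentration of the series not given in the record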
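Compounds were incubated with enzyme (final 15 nM) for 15 min at room temperature before substrate addition started the reaction. Fluorescence at 525 nm excitation, 598 nm emission was recorded immediately and after 30 minutes.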
TRPV1 potentiator = human TRPV1 potentiation; TRPV1-expressing cells, Fluo-8 calcium influx, capsaicin EC20 potentiation; host cell line not named in the record; control for the full effect not named in the record; potentiation, % at 8.33 µM; 320,000 tested, 0.02% active; active means potentiation above 80%; inconclusive means 30% to 80%; inactive means below 30%; also: 0% is about no effect
Target sequence (Q8NER1 whole entry, looked up): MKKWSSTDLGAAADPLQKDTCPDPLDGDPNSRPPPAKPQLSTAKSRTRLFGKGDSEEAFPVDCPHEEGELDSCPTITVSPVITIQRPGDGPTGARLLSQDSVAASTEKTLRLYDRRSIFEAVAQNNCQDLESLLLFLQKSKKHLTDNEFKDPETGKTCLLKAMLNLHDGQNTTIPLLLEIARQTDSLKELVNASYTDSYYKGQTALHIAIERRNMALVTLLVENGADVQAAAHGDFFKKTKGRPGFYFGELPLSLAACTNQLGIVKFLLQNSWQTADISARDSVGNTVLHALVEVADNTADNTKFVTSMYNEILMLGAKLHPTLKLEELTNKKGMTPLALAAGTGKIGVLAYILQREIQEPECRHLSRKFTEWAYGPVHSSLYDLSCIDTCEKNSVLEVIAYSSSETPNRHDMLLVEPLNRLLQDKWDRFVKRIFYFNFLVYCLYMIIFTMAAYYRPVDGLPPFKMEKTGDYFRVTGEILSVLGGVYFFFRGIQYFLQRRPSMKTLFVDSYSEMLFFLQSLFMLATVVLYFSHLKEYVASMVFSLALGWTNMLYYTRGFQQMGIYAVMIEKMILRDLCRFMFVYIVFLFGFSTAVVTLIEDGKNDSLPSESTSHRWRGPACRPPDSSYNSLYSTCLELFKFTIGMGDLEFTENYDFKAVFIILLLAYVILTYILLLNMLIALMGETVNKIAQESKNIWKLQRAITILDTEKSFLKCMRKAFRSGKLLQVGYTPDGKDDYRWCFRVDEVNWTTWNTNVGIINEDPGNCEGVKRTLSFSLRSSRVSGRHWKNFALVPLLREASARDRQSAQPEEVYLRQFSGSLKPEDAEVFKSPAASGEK
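TRPV1-expressing cells were cultured overnight at 35.5C and loaded with Fluo-8 calcium dye for 40 to 90 min at room temperature. After a 10 s baseline, compound was added and calcium influx was read kinetically for 3 min (ex 480/em 520 nm).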
ClpP mod = qHTS Assay for Activators of ClpP; purified B. subtilis ClpP, FRET peptide cleavage, 20 min; Potency, µM (titrated, usually from 57.5 µM), for inactives: at the highest dose activity change, negative = active; 340,000 tested, 1.9% active; active = well fitted falling curve with a large enough effect; inconclusive = small, poorly fitted or top-dose-only effect; inactive = no such curve, though single readings can be large or run the other way; also: potency is read from the fitted curve at half-maximal effect; the source files actives as falling curves though it sought activators and does not explain the sign; nearly all actives have a fitted effect of over 65% in size; many hits overshoot -100%
Target sequence (P80244 whole entry, looked up): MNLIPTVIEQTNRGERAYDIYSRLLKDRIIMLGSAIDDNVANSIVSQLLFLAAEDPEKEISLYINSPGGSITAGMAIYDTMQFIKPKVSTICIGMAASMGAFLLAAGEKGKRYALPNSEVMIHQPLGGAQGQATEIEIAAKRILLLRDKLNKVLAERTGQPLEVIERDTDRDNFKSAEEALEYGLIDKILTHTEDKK
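Buffer: 100 mM Tris/HCl pH8, 100 mM KCl, 0.05% low protease BSA, 2.5% glycerol, 0.01% Tween-20. ClpP 10 microg/mL final; 20 min RT; delta FRET normalized to ADEP and DMSO controls.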
gsp ag = activates gsp, the McCune-Albright syndrome mutation; gsp mutant cells, cAMP HTRF, 30 min; control for the full effect not named in the record; Potency, µM (top dose mostly 76.9 µM), without a hit: at the top dose activation (cAMP increase), hits mostly activators; 340,000 tested, 0.13% active; AID 624287; active = well fitted activation curve with a large enough effect; inconclusive = small, poorly fitted or top-dose-only effect, or another doubt; inactive = no such curve, though single readings can be large or run the other way; cell line not stated here;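 also: phosphodiesterase inhibitor Ro 20-1724 added with compounds to block cAMP breakdown; potency is read from the fitted curve at half-maximal effect; nearly all actives have a fitted effect of over 60% in size; about a fifth of the inactives were tested at one dose only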
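Cells in DMEM/10% FBS with G418 were pretreated with compounds in DMSO plus […] (300 uM stock) for 30 min at 37C. cAMP was measured by HTRF (cAMP-d2 plus anti-cAMP antibody-K) after 30 min at room temperature.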
* = called active by the depositor; ? = inconclusive; . = no result given; & = joins results of further samples; [ ] = dose if it differs, or a comment. Rows are unselected; overall some 5.1% were active at least once.

#	SMILES	ClpP mod	D2 potentiator	gsp ag	Menin-MLL FL inh	Sfp inh	gsp antag	TRPV1 potentiator
1	CC(C)C(OC(=O)CCCC(=O)Nc1nccs1)C(=O)NC1CCCCC1 (stereo unspecified)	0.9%	16	-47%[inhibitor]	-1.9	9%	4%	3
2	Clc1cccc(N=C2NN=C(c3ccc4c(c3)OCCO4)CS2)c1	-3.1%	-10	0%	-0.7	?	-3%	-6
3	C[C@H](CO)N1C[C@H](C)[C@H](CN(C)C(=O)Nc2ccc(F)cc2)Oc2c(NC(=O)c3ccc(-c4nccs4)cc3)cccc2C1=O	-2.6%	-7	.	.	.	?	.
4	CC(=O)Nc1ccc(N2CCCC(C)C2)c([N+](=O)[O-])c1 (stereo unspecified)	.	-17	-25%	0.0	15%	-2%	-35
5	C=CCNC(=O)c1ccccc1NC(=O)c1ccc(Cl)c(S(=O)(=O)Nc2cccc(C)c2C)c1	?	3	24%	1.4	19%	-12%	7
6	COc1ccccc1NC(=O)Nc1ccc(Cc2ccncc2)cc1	-6.6%	-5	2%[15.4 µM]	-0.2	9%	-7%	-5
7	CCCCN(C)CCCNC(=O)CS(=O)Cc1nc(-c2ccc(OC)c(OC)c2)oc1C (stereo unspecified)	?	-4	-33%[inhibitor]	-1.4	4%	-5%	-12
8	COc1cc(C(=O)Nc2ccc(O)cc2C(=O)O)ccc1OC(C)=O	0.4%	-8	12%	0.4	20%	-24%	-12
9	CCN(c1ccccc1)S(=O)(=O)c1ccc(NN)nc1	-2.4%	-9	-3%	.	.	2%	-4
10	CCOc1ccccc1NC(=O)CCS(=O)(=O)c1ccc(Br)cc1	1.3%	-5	21%[15.4 µM]	-2.4	8%	0%	-3
11	O=C(NC1CC1)c1sc2ccccc2c1Cl	.	-5	9%	.	7%	4%	-7
12	CN1CCN(S(=O)(=O)Cc2ccccc2Cl)CC1	0.0%	-9	8%	.	9%	10%	-7
13	CC(=O)N1CCN(C(=O)CCC(=O)O)CC1	1.1%	-6	-12%	-4.6	14%	1%	-8
14	O=C(CSc1ccc(F)cc1)Nc1ccc(Br)cc1	-0.8%	-12	?	-3.0	8%	-5%	-4
15	O=C(Nc1ccc(N2CCOCC2)cc1)C1CCN(S(=O)(=O)c2ccc3c(c2)OCCO3)CC1	.	8	7%[15.4 µM]	-3.4	1%	2%	-3
16	COc1ccc(OCC(=O)N2CCC(n3nccc3NC(=O)C3CC3)CC2)cc1	-4.5%	-6	4%	-0.1	6%	4%	-3
17	O=C(CCc1ccccc1)Nc1cc(Cl)ccc1O	1.4%	12	-21%	3.6	-7%	?	-9
18	CCc1ccc(NC(=O)c2n[nH]c(=O)c3ccccc23)cc1	0.3%	-3	-19%	5.7	26%	5%	.
19	CCc1ccccc1NC(=O)c1cnc2n(c1=O)CCS2	-20%	-3	26%	2.2	13%	6%	2
20	COc1cc(C=O)ccc1Oc1nnnn1-c1ccc(C(N)=O)cc1	-4.0%	-8	-9%	3.3	15%	-4%	3
21	CCC(C)(C)n1nnnc1C(c1ccccc1)N1CCN(C2CCCC2)CC1 (stereo unspecified)	0.5%	-7	-9%	-2.1	-1%	6%	-6
22	O=C(O)CSc1nnc(-c2ccc(Cl)cc2Cl)n1-c1ccccc1	.	-1	1%	-0.5	10%	5%	3
23	c1cncc(Nc2c3ccccc3nc3ccccc23)c1	1.9%	-15	14%[15.4 µM]	7.3	3%	-9%	13
24	O=C(COc1ccc(Br)cc1Br)NNC(=O)c1cccs1	.	2	14%[15.4 µM]	-1.2	4%	5%	8
25	CC(C)N(C)CCOC(=O)c1ccccc1Cl	6.7%	-28	0%	3.3	8%	-6%	-3
26	COc1ccc(CN(Cc2nc3ccccc3c(=O)[nH]2)C(=O)c2ccco2)cc1	0.4%	4	13%[15.4 µM]	-1.4	9%	-28%	-3
27	CCC(=O)c1ccc(OCC(O)CN2CCN(C(c3ccccc3)c3ccccc3)CC2)cc1 (stereo unspecified)	-0.9%	-22	-9%	1.5	-25%	-4%	-4
28	O=C(CN1C(=O)C2CCCCC2C1=O)Nc1ccc(OC(F)F)c(Cl)c1 (stereo unspecified)	-0.6%	-3	13%	.	.	3%	8
29	CCOC(=O)c1c(CN2CCN(C)CC2)n(C)c2cc(Br)c(OC)cc12	-3.8%	-6	20%	1.4	1%	2%	0
30	CN(Cc1nccn1C)C(=O)CC1C(=O)NCCN1Cc1cccc(Oc2ccccc2)c1 (stereo unspecified)	-0.9%	-2	31%	-8.6	-5%	13%	-2
31	O=C(Nc1cccc(S(=O)(=O)N2CCCCC2)c1)c1ccc(N2CCCC2=O)cc1	14%	-8	-9%	.	.	19%	-7
32	CC1/C(=C\c2ccc(Cl)cc2)C(=O)C2CC1C2(C)C (stereo unspecified)	0.1%	-14	9%[15.4 µM]	-1.1	-7%	-4%	-10
33	Cc1cc(C(=O)NNc2ccc(C)c(C)c2)no1	1.9%	-28	?	0.0	-10%	-7%	.
34	Cc1ccc(N2C(=O)c3ccccc3C2O)nc1 (stereo unspecified)	.	.	.	-1.4	-8%	.	-2
35	O=C(/C=C/c1cccnc1)c1cccc(O)c1	.	-15	7%[15.4 µM]	0.1	?	.	-3
36	CN(C)/C=N/c1nccc(-c2cccs2)n1	.	2	-38%[15.4 µM]	3.4	-1%	19%	-11
37	CCOC(=O)c1c(C)[nH]c(=S)c(C#N)c1-c1ccccc1	0.8%	-8	28%	1.3	79µM*	1%	5
38	Cn1cc(CN2CCN(c3ccccc3)CC2)c2ccccc21	-2.3%	-10	1%	-1.5	8%	8%	6
39	O=C(CNC(=O)c1ccc2c(c1)OCO2)N/N=C(Br)/C=C/c1ccccc1	29%	-13	-16%[15.4 µM]	6.6	4%	14%	?
40	C/C(=N\NC(=O)c1cc2c(s1)CCC(C)C2)c1ccc[nH]1 (stereo unspecified)	-5.8%	-8	7%	.	.	1%	1
41	CC(=O)NS(=O)(=O)c1ccc(NC(=O)c2ccc(S(=O)(=O)N3CCCC3)cc2)cc1	1.1%	-3	1%	.	.	5%	4
42	CC(C)CCCCCCCCCCCCC(=O)NCC(=O)NC1C(O)C(O)C(Nc2ncnc3nc[nH]c23)OC1C(O)CO (stereo unspecified)	-1.1%	-8	21%	.	.	-13%	.
43	NC(=O)COC(=O)c1cc(=O)[nH]c2ccc(S(=O)(=O)Nc3ccc(F)cc3)cc12	.	-1	12%	0.3	-17%	5%	-7
44	CC(/C=C/c1ccc(N(C)C)cc1)=N\N=C(/N)SC1CC(=O)N(c2ccc(C(=O)O)cc2)C1=O (stereo unspecified)	-3.7%	5	17%	?	?	-2%	-32
45	O=C(NCc1ccco1)c1cccc2c1C(=O)c1ccc(N3CCC(N4CCCCC4)CC3)cc1S2(=O)=O	-0.6%	-3	-20%	.	.	.	.
46	Cc1cc(C)cc(NC(=O)CN2CCN(C(=O)c3cccs3)CC2)c1	.	-10	-10%	.	.	-1%	.
47	CCN(CC)CCCN(C)C(=O)Cn1nc(Cc2ccncc2)c2ccccc2c1=O	.	2	-3%	-1.4	13%	-4%	15
48	COC(=O)[C@@]1(Cc2ccc(F)cc2)[C@H]2c3cc(C(=O)N(C)C)n(CCSCCO)c3C[C@H]2CN1C(=O)c1ccccc1	2.2%	-13	9%	3.5&0.8	-7%&9%	-8%	2
49	CCn1c(-c2ccc(C)cc2)n[nH]c1=S	-27%	-16	-28%	1.7	?	-9%	-1
50	O=C(O)CCC(=O)N(Cc1cccnc1)Cc1cccc(F)c1	0.6%	-6	?	1.6	-18%	4%	3
51	Cc1oc2nc(SCCCC(=O)NCCCO)nc(N)c2c1C	2.0%	4	-6%[15.4 µM]	6.8	19%	4%	16
52	O=C(O)c1ccc(COc2ccc([N+](=O)[O-])cc2Cl)cc1	0.7%	-2	4%	.	.	.	.
53	O=C(O)c1cccc(N2C(=S)N=C(Nc3ccccc3)C23CCCCC3)c1	0.0%	-2	7%	-4.5	11%	-18%	3
54	CCc1cc(Br)ccc1N1C(=O)C2CC=CCC2C1=O (stereo unspecified)	1.7%	3	44%	-1.2	-7%	-3%	15
55	CC1CCCN(C(=O)CCNC(=O)c2ccccc2Cl)C1 (stereo unspecified)	0.3%	-4	-10%	.	5%	-1%	0
56	CCN(CC)S(=O)(=O)c1ccc(N2CCOCC2)c(NC(=O)c2ccccc2F)c1	.	-5	?	0.5	13%	-11%	-29
57	Cc1cc(C(=O)N/N=C/c2c(C)[nH]n(-c3ccccc3)c2=O)n[nH]1	-4.5%	-15	-1%	-0.5	21%	-17%	-1
58	O=C(Nc1cccc2cccnc12)c1cccc2ccccc12	6.4%&32%	-5	-32%[inhibitor]	5.0	-7%	0%	7
59	O=C(Cn1c(=O)c2cccn2c2cccnc21)N1CCN(c2ccccc2F)CC1	-24%	-5	-32%[inhibitor]	?	13%	-7%	-4
60	Cc1nc(C)c(C(=O)O)c(-c2cccs2)c1C(=O)O	.	-1	-11%	-2.5	11%	11%	9

Random excerpt: 2 compounds from above, in no set order.
#	SMILES	ClpP mod	D2 potentiator	gsp ag	Menin-MLL FL inh	Sfp inh	gsp antag	TRPV1 potentiator
12	CN1CCN(S(=O)(=O)Cc2ccccc2Cl)CC1	0.0%	-9	8%	.	9%	10%	-7
34	Cc1ccc(N2C(=O)c3ccccc3C2O)nc1 (stereo unspecified)	.	.	.	-1.4	-8%	.	-2

(listing goes on)
#	SMILES	ClpP mod	D2 potentiator	gsp ag	Menin-MLL FL inh	Sfp inh	gsp antag	TRPV1 potentiator
61	O=C(O)C1=CC2C=C(Cl)C=CC2OC1=O (stereo unspecified)	?	4	14%	.	.	-2%	.
62	COc1ccc(OCCCC(=O)Oc2ccc(OC)cc2)cc1	0.6%	-3	-25%	4.8	9%	-2%	19
63	Cc1cccc(/C=N/NC(=O)c2cccc([N+](=O)[O-])c2)n1	.	2	?	-3.3	-18%	-4%	6
64	c1ccc(Sc2nc(N3CCCCC3)nc(N3CCCCC3)n2)nc1	-0.1%	7	18%	6.9	-1%	-12%	-13
65	O=C(CN(C(=O)CNC(=O)c1cccs1)c1ccc(F)cc1)NC1CCCCC1	.	-6	-31%[inhibitor]	1.8	13%	2%	15
66	COCCCNC(=O)COc1cc2c(c3oc(=O)c(C)c(C)c13)CCC(C)(C)O2	.	-2	?	-1.6	12%	2%	-20
67	COc1cc(C(=S)N2CCOCC2)cc(OC)c1OC(=O)c1ccc(F)cc1	.	-2	-25%	1.5	28µM*	0%	5
